CSC inhib – blocks cancer stem cells | cancer stem cell-like cells viability, luminescence | inhibition, % at 7.5 µM | actives 1.1% (n = 300,000);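 active = mean at 75% or more and at least half the replicates too; inconclusive = mean and replicates disagree; tested in HMLE shEcad cells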;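 also: 0% = median of negative and 100% = median of positive control wells; the first replicate is given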
eIF4H FP inh – inhibitors of RNA binding by human eIF4H | inhibition, % at 35 µM | actives 0.94% (n = 290,000) | AID 2012 | eIF4H fluorescence polarization binding assay | Q15056;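 active = 50% or more with normal probe brightness, or confirmed in later tests; inconclusive = above 50% with abnormal brightness, or retests that disagree; inactive = below 50% or failed in later tests; about a fifth of its hits are not listed in these tables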;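 also: calls also rest on retests at 20 µM and on dose response follow-up; 0% = protein and probe with vehicle and 100% = probe without protein; strong numbers were not always called active; many hits fall short of the cut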
MT1-MMP act inh – MT1-MMP (human) activation inhibition; HT1080 RFP-PRO-GFP cells, GFP/RFP ratio fluorescence, overnight; percent of plate control window, DMSO zero; GFP/RFP ratio change, % at 20 µM; actives 0.061% (n = 360,000); P50281;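 active = GFP/RFP ratio change of at least 30% with cell ATP level not reduced by more than half and red fluorescence within 50% of control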; also: strong numbers were not always called active
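Assay system: HT1080 RFP-PRO-GFP cells | Dosing: 20 µM single dose, 1% DMSO | Incubation: Cells overnight before dosing, compound overnight, 37 °C, 5% CO2 | Evaluation: GFP/RFP fluorescence ratio | Control set: DMSO-only wells and HT1080 RFP-L50D-GFP cell wells as references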
UUG fidelity – yeast start codon fidelity modulation. AID 602363. actives 0.13% (n = 350,000). S. cerevisiae UUG-firefly luciferase reporter, luminescence/redox ratio. activity score, % at 18.7 µM;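 active = replicate mean at a twofold rise or more, about +100% in these data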;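 also: firefly luciferase made from a UUG start codon reports start codon fidelity; reporter light over untreated wells divided by growth signal over untreated wells; some hits fall short of that in this replicate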
Env fusion inh – blocks HIV Env-driven cell-cell fusion | HeLa-JRFL Env/CEM21 cell fusion, luciferase | inhibition, % at 12.3 µM | actives 1.1% (n = 360,000);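 active = mean replicate inhibition score of at least 50 and every replicate individually at or above 50; inconclusive = only one of the two criteria met; inactive = mean below 50 and not all replicates reaching 50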;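 also: 0% = plate neutral controls and 100% = maraviroc near 300 nM; one replicate is shown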
PABP FP inh – PABP-poly(A) binding inhibition; P11940; PABP-poly(A) RNA binding, fluorescence polarization; inhibition, % at 35 µM; actives 1% (n = 290,000); AID 2014;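 active = 50% or more with normal probe brightness, or confirmed in later tests; inconclusive = above 50% with abnormal brightness, or retests that disagree; inactive = below 50% or failed in later tests; about a fifth of its hits are not listed in these tables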;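 also: calls also rest on retests at 20 µM and on dose response follow-up; controls were probe without protein and protein plus probe with vehicle; some compounds called inactive have numbers as strong as hits; many hits fall short of the cut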
Rce1 inh – yeast Ras-converting enzyme inhibition | actives 0.27% (n = 290,000) | calls only | yeast membranes, quenched prenylated peptide cleavage fluorescence | Q03530;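 active = fall in fluorescence gain of 50% or more versus controls, with final raw signal at or below 3038400; inconclusive = same 50% fall but final raw signal above 3038400; inactive = fall in fluorescence gain under 50%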;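 also: plate controls were neutral control wells for no effect and wells lacking membranes for full effect; tested at 10 µM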
Target sequence (Q03530 whole entry, looked up): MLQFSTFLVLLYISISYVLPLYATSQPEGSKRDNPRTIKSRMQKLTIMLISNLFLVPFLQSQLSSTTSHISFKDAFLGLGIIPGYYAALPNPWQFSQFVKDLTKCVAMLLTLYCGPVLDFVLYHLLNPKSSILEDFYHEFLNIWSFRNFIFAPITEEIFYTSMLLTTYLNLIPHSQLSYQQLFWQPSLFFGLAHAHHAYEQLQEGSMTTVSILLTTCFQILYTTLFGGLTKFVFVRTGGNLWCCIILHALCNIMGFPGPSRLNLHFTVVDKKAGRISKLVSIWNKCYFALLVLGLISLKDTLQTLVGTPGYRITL
PABP FP inh retest – second read-out of PABP FP inh, no call of its own (marks repeat the call); inhibition, %; compound at 20 µM; confirmation repeats;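 mean of two retest wells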
MT1-MMP act inh RFP – further read-out of MT1-MMP act inh, marked with its call; RFP signal change, %; measured here: RFP expression control read;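 0 = vehicle wells; hits needed this value within 50% of zero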
Active calls of the source: *; i = inactive; ? = inconclusive; . = not tested or not shown. An excerpt; rates above refer to the full screens.

SMILES | CSC inhib | eIF4H FP inh | MT1-MMP act inh | MT1-MMP act inh RFP | UUG fidelity | Env fusion inh | PABP FP inh | Rce1 inh | others
O=C1/C(=C/c2cccs2)CCC/C1=C\c1cccs1 | 36 | 72* | -10 | 3 | -26 | -76 | 53* | i
CCC(C)(C)NC(=O)C(c1cccc(OC)c1)N(C(=O)CNC(=O)c1cccs1)c1cccnc1 (stereo not given) | -15 | -6 | 0 | 3 | -10 | -10 | 0 | i
COc1cc(N)c(Cl)cc1C(=O)OC(C)C(=O)Nc1cccc(S(=O)(=O)N2CCOCC2)c1 (stereo not given) | 12 | . | 16 | -2 | . | i | . | i
COc1ccc2nc(NC(=O)CN3C(=O)NC4(CCCCC4)C3=O)sc2c1 | . | 0 | -2 | -2 | -5 | -8 | 4 | i
O=C(c1ccco1)N1CCC(c2nc(-c3ccc(F)cc3)no2)CC1 | -1 | 4 | 4 | 2 | 4 | 39 | -17 | i
Cc1c(Cl)c([N+](=O)[O-])nn1CCCC(=O)Nc1sc2c(c1C(N)=O)CCC(C)C2 (stereo not given) | -4 | -5 | 5 | 1 | -3 | -36 | 45 | i
COC(=O)C(C)(C(=O)OC)c1ccccc1[N+](=O)[O-] | 7 | ? | 2 | 3 | -15 | -31 | 67* | i | PABP FP inh retest=58*
CC(C)(C)OC(=O)C[C@H]1C/C=C\C[C@@H](CC(=O)N[C@H](CO)Cc2ccccc2)C(=O)NCCOC1=O | . | . | -4 | 1 | -5 | 15 | . | .
CC(C)C(=O)Nc1cc2c3c(c1)CCN3C(=O)CC2 | -3 | -10 | 3 | 3 | -6 | -5 | -3 | i
CCOC(=O)Cc1cn(C(=O)OC(C)(C)C)c2ccccc12 | 3 | . | 4 | 3 | 0 | 13 | . | .
Cc1nn(Cc2ccc(Cl)cc2Cl)c(C)c1NC(=O)NC12CC3CC(CC(C3)C1)C2 | 15 | -6 | -23 | -28 | -13 | 7 | -13 | i
CCn1c(Cc2ccccc2)nnc1SCC(=O)c1cccc([N+](=O)[O-])c1 | -4 | -7 | 7 | 4 | -16 | 16 | -6 | i
O=C(Cc1cccs1)Nc1cccc(-c2nnc(-c3ccco3)o2)c1 | -21 | 5 | 10 | -7 | -21 | 13 | -5 | i
Cc1ccc(C(C)NC(=O)c2c(C)noc2C)cc1C (stereo not given) | -4 | -1 | -3 | 0 | . | -67 | 7 | i
CC(=O)Oc1ccc(N2C(=O)C3C(C2=O)C(C(=O)c2ccc(Cl)cc2)N2CCCC32)cc1 (stereo not given) | -8 | 26 | -18 | 1 | . | 4 | 16 | i
COc1ccc(C(=O)Nn2c(C)ccc2C)cc1OC | -3 | -8 | -2 | 10 | -11 | . | 10 | i
COCCn1cnc2c1c(=O)n(CC(=O)NCC(F)(F)F)c(=O)n2Cc1ccccc1 | -3 | 1 | 4 | 3 | 3 | -11 | 2 | i
CN(C(=O)c1cccc(NC(=O)C2CCN(C(=O)OC(C)(C)C)CC2)c1)C1CCCCC1 | -14 | . | -2 | -23 | 27 | -12 | . | .
O=C(CSc1nnc(NC(=O)c2ccccc2)s1)NCc1ccco1 | 16 | 16 | 2 | 1 | -7 | -9 | 22 | i
CCOc1ccc(N(CC(=O)NCc2ccccc2)S(=O)(=O)c2c(C)noc2C)cc1 | -16 | -7 | 0 | 2 | -24 | 5 | 8 | i
COc1ccc(-c2noc(CCC(=O)Nc3cccnc3)n2)cc1OC | -13 | -2 | -1 | -2 | -9 | . | 0 | i
Nn1c(C2CCC2)nc2cc(Cl)ccc2c1=O | 6 | -9 | 0 | 3 | -17 | -5 | -3 | i
CCC(C)NC(=O)CNC(=O)c1nn(-c2ccc(OC)c(Cl)c2)c(=O)c2ccccc12 (stereo not given) | -21 | -1 | 5 | 5 | -13 | 4 | 9 | i
CCCc1c(C)c2ccccc2[nH]c1=O | 25 | -10 | 1 | 0 | 23 | -214 | 1 | i
CC(C)NC(=O)c1sc2nc(-c3cccs3)cc(-c3cccs3)c2c1N | 19 | 1 | . | . | . | -2 | 1 | i
COc1ccc2c(c1)CCCC21NC(=O)NC1=O (stereo not given) | -7 | -6 | 7 | 13 | -6 | . | 4 | i
N#CN=C(c1ccccc1)c1ccccc1 | -8 | -7 | 4 | 3 | 2 | 4 | -6 | i
CSc1ncnc2c1ncn2CCCN1CCN(Cc2c(C)cc(C)cc2C)CC1 | . | . | -3 | -7 | -7 | 8 | . | .
O=C1Nc2ccccc2C(O)(C(=O)NCc2ccco2)N1c1ccc(Cl)c(Cl)c1 (stereo not given) | 6 | 14 | -6 | 0 | -3 | . | -9 | i
CC(C)c1ccc(CNC(=O)C2CCCN2S(=O)(=O)c2ccccc2)cc1 (stereo not given) | -6 | 7 | 3 | -5 | 8 | 15 | -2 | i

Some of these compounds in order of count of non-hydrogen atoms, ascending:
SMILES | CSC inhib | eIF4H FP inh | MT1-MMP act inh | MT1-MMP act inh RFP | UUG fidelity | Env fusion inh | PABP FP inh | Rce1 inh | others
CCCc1c(C)c2ccccc2[nH]c1=O | 25 | -10 | 1 | 0 | 23 | -214 | 1 | i
N#CN=C(c1ccccc1)c1ccccc1 | -8 | -7 | 4 | 3 | 2 | 4 | -6 | i
Nn1c(C2CCC2)nc2cc(Cl)ccc2c1=O | 6 | -9 | 0 | 3 | -17 | -5 | -3 | i
COc1ccc2c(c1)CCCC21NC(=O)NC1=O (stereo not given) | -7 | -6 | 7 | 13 | -6 | . | 4 | i
Cc1ccc(C(C)NC(=O)c2c(C)noc2C)cc1C (stereo not given) | -4 | -1 | -3 | 0 | . | -67 | 7 | i
O=C(CSc1nnc(NC(=O)c2ccccc2)s1)NCc1ccco1 | 16 | 16 | 2 | 1 | -7 | -9 | 22 | i
COc1ccc(-c2noc(CCC(=O)Nc3cccnc3)n2)cc1OC | -13 | -2 | -1 | -2 | -9 | . | 0 | i
CCn1c(Cc2ccccc2)nnc1SCC(=O)c1cccc([N+](=O)[O-])c1 | -4 | -7 | 7 | 4 | -16 | 16 | -6 | i
O=C1Nc2ccccc2C(O)(C(=O)NCc2ccco2)N1c1ccc(Cl)c(Cl)c1 (stereo not given) | 6 | 14 | -6 | 0 | -3 | . | -9 | i
CSc1ncnc2c1ncn2CCCN1CCN(Cc2c(C)cc(C)cc2C)CC1 | . | . | -3 | -7 | -7 | 8 | . | .
COCCn1cnc2c1c(=O)n(CC(=O)NCC(F)(F)F)c(=O)n2Cc1ccccc1 | -3 | 1 | 4 | 3 | 3 | -11 | 2 | i
CN(C(=O)c1cccc(NC(=O)C2CCN(C(=O)OC(C)(C)C)CC2)c1)C1CCCCC1 | -14 | . | -2 | -23 | 27 | -12 | . | .

New compounds follow:
SMILES | CSC inhib | eIF4H FP inh | MT1-MMP act inh | MT1-MMP act inh RFP | UUG fidelity | Env fusion inh | PABP FP inh | Rce1 inh | others
C/C(=N/O)c1ccccn1 | 5 | -1 | 0 | 0 | -19 | . | 6 | i
COc1ccc(-n2cc(C(=O)O)c(=O)cc2C)cc1 | -6 | 9 | 4 | 6 | -24 | 16 | 13 | i
CCOc1ccc(CN2C(=O)c3ccccc3C2C(=O)NCc2cccnc2)cc1 (stereo not given) | -4 | 0 | 1 | 6 | -23 | -80 | -7 | i
CCOC(=O)c1[nH]cnc1C(=O)Nc1ccccc1C | 7 | -2 | 0 | 3 | -7 | -31 | 0 | i
COc1ccc(-n2cc(CN(C)C3CCOCC3)c(-c3cccc(F)c3)n2)cc1 | 4 | 2 | 1 | 4 | . | 21 | -10 | i
CC(CCc1ccccc1)NC(=O)/C=C/c1ccc(F)cc1 (stereo not given) | -6 | 9 | . | . | . | . | -8 | i
COc1ccc(-c2csc(C(O)c3ccc(F)c(F)c3)n2)cc1 (stereo not given) | . | . | -1 | -3 | -19 | -5 | . | .
Cc1cccc(OCCOC(=O)CN2C(=O)NC3(CCCC3)C2=O)c1 | 0 | . | 6 | 4 | . | 1 | . | i
COC(=O)C1=C(CS(=O)(=O)c2ccc(Cl)cc2)NC(=O)NC1c1ccc(O)cc1 (stereo not given) | -13 | -9 | 0 | -1 | -16 | 0 | 12 | i
CN(C)CCCNC(=O)C[C@H]1C[C@H](C(=O)N2CCCCC2)[C@@]2(C)c3[nH]c4ccc(Cl)cc4c3CCN2C1=O | . | . | -2 | 1 | -11 | -1 | . | .
COC(=O)CNc1nc(Cl)nc(Nc2ccc(C)cc2)n1 | -8 | -7 | -2 | 3 | -8 | -17 | -8 | i
CCOc1cccc2cc(-c3csc(NC(=O)CCC(=O)NCCCN4CCC(C)CC4)n3)c(=O)oc12 | 5 | -7 | . | . | . | . | 4 | i
CC(C)(C)C(=O)COC(=O)c1ccc2c(c1)C(=O)N(Cc1ccco1)C2=O | -8 | -1 | 1 | 2 | -14 | -13 | 1 | i
COCN(C#N)c1nc(N(C)C)nc(N(C)C)n1 | -4 | -10 | 4 | 3 | . | 14 | -2 | i
Cc1cc(C(=O)OCC(=O)N2c3ccccc3CC2C)c(C)o1 (stereo not given) | 20 | -6 | 1 | -2 | -16 | . | -4 | i
Cc1c(-c2ccccc2)nc(-c2ccccc2)[nH]c1=O | -2 | -12 | 14 | 3 | . | -5 | 14 | i
CCCc1cc(NCCCO)n2c(nc3ccccc32)c1C#N | -11 | 2 | 3 | -6 | -10 | 14 | 3 | i
CC(=O)NC(CCS(C)(=O)=O)C(=O)Nc1c(F)cccc1F (stereo not given) | 2 | -9 | 1 | 0 | . | . | -2 | i
COC(=O)/C(=C\c1c[nH]c2ccccc12)NC(C)=O | -1 | -5 | -2 | -2 | -22 | -13 | -2 | i
Oc1ccc(C[C@@H]2CNCCN2CC2(c3ccccc3)CC2)cc1 | -13 | . | 1 | 0 | -17 | -55 | . | i
CCn1c(SCC(=O)Nc2ccc3c(c2)n(C)c(=O)n3C)nnc1-c1ccncc1 | -12 | -10 | 5 | 4 | -16 | -1 | 6 | i
COc1cc2[nH]c(=O)n(CCCC(=O)N3CC=C(c4ccccc4)CC3)c(=O)c2cc1OC | 5 | -11 | 3 | -5 | 3 | 40 | 2 | i
CCn1nc(C)c([N+](=O)[O-])c1C(=O)NNC(=O)c1ccc(Cl)cc1 | -5 | -2 | 1 | -1 | . | 1 | -6 | i
NC(=O)c1c(NC(=O)CSc2nnc(Cc3ccccc3)n2Cc2ccco2)sc2c1CCC2 | -6 | -8 | -3 | -16 | -14 | 20 | 8 | i
O=C(Cc1ccsc1)Nc1ccc(Cl)cc1Cl | 2 | -10 | -4 | -6 | -17 | -9 | -16 | i

A draw from above in order of length of the SMILES, lowest first:
SMILES | CSC inhib | eIF4H FP inh | MT1-MMP act inh | MT1-MMP act inh RFP | UUG fidelity | Env fusion inh | PABP FP inh | Rce1 inh | others
CCn1nc(C)c([N+](=O)[O-])c1C(=O)NNC(=O)c1ccc(Cl)cc1 | -5 | -2 | 1 | -1 | . | 1 | -6 | i
CCn1c(SCC(=O)Nc2ccc3c(c2)n(C)c(=O)n3C)nnc1-c1ccncc1 | -12 | -10 | 5 | 4 | -16 | -1 | 6 | i
NC(=O)c1c(NC(=O)CSc2nnc(Cc3ccccc3)n2Cc2ccco2)sc2c1CCC2 | -6 | -8 | -3 | -16 | -14 | 20 | 8 | i
